Screens (PubChem BioAssay)
KCNQ2 inh: KCNQ2 potassium channel inhibitors, primary screen, cell-based, CHO-K1, FluxOR thallium flux, B-score (AID 2156). B-score at 10 µM. Potassium voltage-gated channel subfamily KQT member 2 (Rattus norvegicus), O88943. actives 1.1% (n = 310,000). 20 min; hits give low values; only compounds with negative scores are shown here; some inactives read as strong as hits;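 active means fluorescence ratio B-score at most minus 3 library SDs, with starting brightness B-score within 2 library SDs, cut at about -5.5 in these data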
Target sequence (O88943 whole entry, looked up): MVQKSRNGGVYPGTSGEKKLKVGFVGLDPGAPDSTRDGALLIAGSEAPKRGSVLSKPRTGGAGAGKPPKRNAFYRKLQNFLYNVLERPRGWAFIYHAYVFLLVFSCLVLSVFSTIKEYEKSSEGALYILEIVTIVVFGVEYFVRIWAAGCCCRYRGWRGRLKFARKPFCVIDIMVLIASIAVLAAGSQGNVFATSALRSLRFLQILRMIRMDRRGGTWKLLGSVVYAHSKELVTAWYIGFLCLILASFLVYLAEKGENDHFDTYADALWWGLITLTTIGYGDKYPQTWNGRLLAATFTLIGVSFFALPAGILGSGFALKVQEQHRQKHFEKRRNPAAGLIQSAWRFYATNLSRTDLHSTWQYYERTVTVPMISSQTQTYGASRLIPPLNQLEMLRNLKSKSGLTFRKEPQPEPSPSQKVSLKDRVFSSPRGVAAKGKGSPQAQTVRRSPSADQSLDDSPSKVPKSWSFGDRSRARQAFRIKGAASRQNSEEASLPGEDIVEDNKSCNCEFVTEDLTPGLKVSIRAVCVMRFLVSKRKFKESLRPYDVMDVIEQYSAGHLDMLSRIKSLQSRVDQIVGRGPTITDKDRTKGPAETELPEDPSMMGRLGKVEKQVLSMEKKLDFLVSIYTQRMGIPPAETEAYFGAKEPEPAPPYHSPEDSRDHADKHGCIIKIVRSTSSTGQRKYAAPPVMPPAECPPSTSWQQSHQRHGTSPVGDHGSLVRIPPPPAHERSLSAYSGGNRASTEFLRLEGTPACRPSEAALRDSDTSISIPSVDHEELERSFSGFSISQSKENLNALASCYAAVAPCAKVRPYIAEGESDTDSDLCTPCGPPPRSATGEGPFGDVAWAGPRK
KCNQ2 inh baseline: also measured in KCNQ2 inh; calls as there; B-score; measured here: initial fluorescence intensity artifact check;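 brightness before thallium and not channel activity; 0 = typical well and far values either way flag optical interference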
An asterisk follows results filed as active; i = inactive. The list is partial; rates above refer to the full screens.

KCNQ2 inh	KCNQ2 inh baseline	structure
i	-0.77	CCc1cc2c(Sc3nc4ccccc4s3)ncnc2s1
i	0.58	Cc1cccc(C)c1NC(=S)N(CCN(C)C)C(C)c1ccccn1 (stereo not given)
i	0.57	Cn1c(=O)c(=O)n(C)c2cc(S(=O)(=O)N3CCN(c4cccc(C(F)(F)F)c4)CC3)ccc21
i	0.22	CC1(c2nnc(-c3cccc(Cl)c3)o2)CC(c2cccnc2)=NO1 (stereo not given)
i	-0.87	Clc1ccc(OCCCCN2CCCCC2)cc1
i	0.28	CN(C)CCCN(C(=O)COc1ccc(Cl)cc1)c1nc2cc3c(cc2s1)OCCO3
i	0.04	Cc1cc(C)nc(N/N=C/c2cn[nH]c2-c2ccccc2)n1
i	0.13	Cc1nc(C)c(C(=O)N2CCCC(CCC(=O)NCc3ccc(F)c(F)c3)C2)s1 (stereo not given)
i	0.16	COc1cc(C2CC(=O)N(CC(=O)NCc3ccco3)c3ccccc3S2)cc(OC)c1OC (stereo not given)
i	2.7	CC(=O)C1=C(C)OC(N)=C(C#N)C1c1cccnc1 (stereo not given)
i	2.5	O=C(O)CC(O)C(=O)O (stereo not given)
-7.4*	-1.4*	COc1ccc(C2=NN(C(=O)CSc3nc(=O)n4cccc(C)c4n3)C(c3ccc(C)cc3)C2)cc1 (stereo not given)
i	-0.47	Cc1ccc(N=c2c([N+](=O)[O-])nn(-c3ccc(Cl)cc3)n2O)cc1C
i	-0.88	O=C(Cn1cc([N+](=O)[O-])cn1)NCc1ccco1
i	-0.94	COC(=O)c1ccc(-n2c(CCC(=O)O)ccc2-c2ccccc2)cc1
i	0.74	Cc1cc(C(=O)COc2ccccc2Cl)c(C)n1-c1ccc2c(c1)OCO2
i	-1.3	N#Cc1ccc(-c2csc(NNC(=O)c3ccc(Br)cc3)n2)cc1
i	1.2	c1c2c(cc3sc(N4CCCCC4)nc13)OCCO2
i	-0.87	CCN1C(=NCCCCO)N[C@@H](c2cccc(F)c2)C(C(=O)OC)=C1C
i	1.7	CC1CN(c2ccccc2)NC1=O (stereo not given)
i	-0.66	CCc1ccc(O)c(-c2cc(C(=O)Nc3cccnc3)[nH]n2)c1
i	-2.5	CCN(Cc1ccccc1)C(c1cccc(C#N)c1)c1nnnn1C(C)(C)C (stereo not given)
i	1.2	O=C(c1ccco1)N1CCCC(N2CCN(c3ccccc3F)CC2)C1 (stereo not given)
i	-0.41	Cc1ccc(NC2(C#N)C(=O)Nc3ccccc32)cc1C (stereo not given)
i	0.28	O=C(NNC(=O)C12CC3CC(CC(O)(C3)C1)C2)c1ccccc1O
i	0.85	COc1ccc2c(CC(=O)O)cc(=O)oc2c1
i	-0.06	O=[N+]([O-])c1ccccc1-c1ccc(C(=S)N2CCN(c3ccccc3)CC2)o1
i	-0.03	CCOC(=O)CSc1nc2sc3c(c2c(=O)n1-c1ccccc1)CCN(C)C3
i	-0.73	CC1Sc2ccc(S(=O)(=O)NCCc3ccccc3)cc2NC1=O (stereo not given)
i	-0.09	CC(=O)NC(Nc1nc2c(s1)CCCC2)(C(F)(F)F)C(F)(F)F
i	-0.71	CN1CCN(Cc2coc3c(Cl)cc(Cl)cc3c2=O)CC1
i	-0.47	COc1ccc(C(=O)C2CCCN(Cc3sc(N4CCCC4)nc3Cl)C2)c(OC)c1 (stereo not given)
i	-2.3	COc1ccc(C2(C(=O)Nc3ccc(C)cc3)CCOCC2)cc1
i	-0.49	COc1ccccc1CCC(=O)N(C)CC(=O)Nc1ccc(F)cc1
i	0.86	Cc1ccc2nc(SCC(=O)Nc3cccc4ccccc34)nc(=O)n2c1
i	-0.06	Cc1ccc(OCCn2ccc(=O)[nH]c2=O)cc1C
i	0.18	Cc1ccc2oc(=O)n(CCOc3ccccc3)c2c1
i	1	CCOC(=O)N1CCC(n2c(SCC(=O)NCc3ccccc3)nc3ccccc3c2=O)CC1
i	1.3	CC(C(=O)NCc1ccccc1Cl)n1cc([N+](=O)[O-])cn1 (stereo not given)
i	-0.02	CCCC(O)(CCC)C(=O)NNc1ccc(C)cc1
i	0.81	CC1(c2ccc3noc(-c4ccc(F)cc4)c3c2)OCCO1
i	-0.04	CN(c1ccc(C(=O)Nc2ccc(CC#N)cc2)cc1)S(C)(=O)=O
i	-0.02	Cc1nc(Oc2cccc(Cl)c2)c2oc3ccccc3c2n1
i	0.32	Cc1cc(=O)[nH]c(NCc2ccccc2)n1
i	-0.15	O=C(CSc1nc2c([nH]c3ccccc32)c(=O)n1-c1ccccc1)NCC1CCCO1 (stereo not given)
i	-1.4	C=CCn1c(SCC(N)=O)nc(C)cc1=O
i	-0.45	CN(C)S(=O)(=O)Oc1ccc(C(=O)Nc2cccc(Cl)c2)cc1
i	-0.19	CC[C@H](C)[C@H](NS(=O)(=O)c1ccc(C)cc1)C(=O)N1CCC(C(=O)N[C@H](C(=O)O)C(C)C)CC1
i	1.3	COc1ccc(C)cc1NC(=O)c1ccc(S(=O)(=O)N2CCOCC2)cc1
i	0.38	Cc1cc(C)c(S(=O)(=O)Nc2ccc(N(C)C)cc2)c(C)c1-n1cnnn1

Some of the entries above in a different format:
> CN1CCN(Cc2coc3c(Cl)cc(Cl)cc3c2=O)CC1
- KCNQ2 inh: i
- KCNQ2 inh baseline: -0.71
> COc1ccc(C(=O)C2CCCN(Cc3sc(N4CCCC4)nc3Cl)C2)c(OC)c1 (stereo not given)
- KCNQ2 inh: i
- KCNQ2 inh baseline: -0.47
> COc1ccc(C2(C(=O)Nc3ccc(C)cc3)CCOCC2)cc1
- KCNQ2 inh: i
- KCNQ2 inh baseline: -2.3

Other results:
KCNQ2 inh	KCNQ2 inh baseline	structure
i	-0.52	COc1cc2c(cc1OC)-c1cc(Nc3ccc4c(c3)OCCO4)nc(=O)n1CC2
i	0.21	CCCOc1ccc(CN(C(=O)c2cccc(OC)c2)C2CCS(=O)(=O)C2)cc1 (stereo not given)
i	0.7	Cc1cc(/C=C2/NC(=O)N(Cc3ccccc3F)C2=O)c(C)n1C(C)C
i	-0.3	Cc1cc(C(F)F)n2nc(C(=O)Nc3cc(C)on3)nc2n1
i	-0.01	C/C(=N\OC(=O)c1ccc(C)cc1)c1sc(C)nc1C
i	0.29	C=CCn1c(SCc2c(C)noc2C)nc2ccccc2c1=O
i	-0.9	CC(OC(=O)C1CSC2(C)CCC(=O)N12)C(=O)Nc1cccc(C#N)c1 (stereo not given)
i	-0.84	CCc1ccc(-c2nc(CN3CCCC(C(=O)O)C3)c(C)o2)cc1 (stereo not given)
i	-0.01	Cc1cc(Nc2ccc(Cl)cc2)n(-c2cccc(Cl)c2)n1
i	0.76	CS(=O)(=O)c1nc(S(=O)(=O)c2ccc(Cl)cc2)c(NCCCN2CCCC2=O)s1
i	1.4	Cc1cc(NC(=O)CSc2nnc(CNC(=O)c3cccc(C(F)(F)F)c3)o2)no1
i	-0.76	COc1cccc(CN(C)C(=O)c2cccc(OC3CCN(C4CCCC4)CC3)c2)c1
i	-0.6	CCCN(C(=O)c1ccccc1Cc1ccccc1)C1CCS(=O)(=O)C1 (stereo not given)
i	1	O=C(Nc1nnc(Cc2c[nH]c3ccccc23)s1)c1ccc(Cl)cc1Cl
i	-0.73	COc1ccc(CCNc2nc(-c3cccc(NC(C)=O)c3)cs2)cc1OC
i	-0.42	Cc1ccc(C(=O)CSc2nnc(CNc3ccc(F)cc3)o2)cc1
i	-1.3	CCOc1cc(Br)ccc1S(=O)(=O)N1CC(C)OC(C)C1 (stereo not given)
i	0.11	CC(C)(C)c1cc(C(=O)NCc2ccccc2)ccn1
i	1.6	COC(=O)c1cc2c(=O)c3ccccc3oc2nc1/C=C/N(C)C
i	1.5	COc1ccc(N2CCN(CCNC(=O)CCNS(=O)(=O)c3cccs3)CC2)cc1
i	-1.5	CC1CC(C)CN(CCCNC(=O)c2nn(C)c3c2CS(=O)(=O)c2ccccc2-3)C1 (stereo not given)
i	-0.16	CCOC(=O)N=S(=O)(Oc1ccc([N+](=O)[O-])cc1)c1ccc(Cl)cc1 (stereo not given)
i	-0.79	COC(=O)[C@@H]1C[C@@]2(O)[C@H](O)[C@H](O)[C@H](O)C[C@H]2N1Cc1ccccc1OS(=O)(=O)c1ccc(C)cc1
i	-0.59	Cc1ccc(-c2noc(CCC(=O)NCCCN3CCN(c4cccc(Cl)c4)CC3)n2)cc1
i	-0.44	CC1CCCN(C(=O)CCNC(=O)Cn2cnc3ccccc3c2=O)C1 (stereo not given)
i	-0.04	CN(C(=S)Nc1ccc(F)cc1)C1(c2ccccc2Cl)CCCCC1=O (stereo not given)
i	0.74	O=C(Nc1cccc2ccccc12)N1CCc2ccccc2C1
i	-1.8	CC1CC(C)CN(C(=O)c2cccc3c2-c2ccccc2C3=O)C1 (stereo not given)
i	0.01	CCN(CC)S(=O)(=O)c1ccc(C)c(NC(=S)N2CCN(C/C=C/c3ccccc3)CC2)c1
i	-1.2	CCn1c(SC(C)C(=O)NCC2CCCO2)nc2scc(-c3ccccc3)c2c1=O (stereo not given)
i	-2.8	Cc1ccc(C(C(=O)NCc2ccccc2)N(C(=O)c2csnn2)C2CC2)cc1 (stereo not given)
i	2.2	CCN(CC)c1ccc(/C=C2/C(=O)ON=C2C)cc1
i	0.85	CCOc1ccc(C2(C)NC(=O)N(CCN(C)C)C2=O)cc1 (stereo not given)
i	-1.3	Cc1onc(-c2c(F)cccc2Cl)c1C(=O)N1C=CC(C(F)(F)F)=NCC1
i	-1.1	Cc1cc(C)n2nc(SCc3cc(=O)oc4ccc5ccccc5c34)nc2n1
i	1.1	CCc1nn(C(CC)C(=O)NCCc2ccc(OC)cc2OC)c(=O)c2cc3occc3n12 (stereo not given)
i	-0.02	CCOCCCn1c(=N)c(C(=O)NCc2ccc3c(c2)OCO3)cc2c(=O)n3ccccc3nc21
i	-1.1	Cc1cccc(-c2csc(NC(=O)c3cnccn3)c2C(=O)OC(C)C)c1
i	-0.08	Cc1ccccc1N=C1NC(=O)CC(c2ccccc2)S1 (stereo not given)
i	1.5	N#Cc1c(N)c(C#N)c(-c2ccc3c(c2)OCO3)c2c1CCCC2
i	-0.57	CC1C(C#N)=C(SCC(N)=O)NC2=C1C(=O)CC(C)(C)C2 (stereo not given)
i	-0.62	CC(C)NCCOCCOc1ccccc1F
i	-0.37	CN1C(c2ccccc2)CC(=NO)CC1c1ccccc1 (stereo not given)
i	-0.99	Cn1cccc1C(=O)NCC(c1ccco1)N1CCCCC1 (stereo not given)
i	0.53	CC(C)NC(=O)CC1OC(=O)c2ccccc21 (stereo not given)
i	-0.08	Cc1ccc2cc(C#N)c(N3CCCN(C(=S)NCCCN(C)C)CC3)nc2c1
i	0.53	C=CCNc1oc(/C=C/c2ccccc2)nc1C#N
i	-1.9	c1ccc2c(c1)nnn2-c1ncnc2sc3c(c12)CCCC3
i	1.9	C/C(CCN1CCc2nc(-c3ccccc3)c(-c3ccccc3)cc2C1)=N\O[C@@H](C)c1cn([C@H](CO)Cc2ccccc2)nn1
i	0.46	COc1ccc(Cn2c(=O)[nH]c3cc(C(=O)N4CCN(c5ccccc5)CC4)ccc3c2=O)cc1

Profiles, looked up by structure.
Entry for Cc1cc(C)n2nc(SCc3cc(=O)oc4ccc5ccccc5c34)nc2n1 = KCNQ2 inh = i; KCNQ2 inh baseline = -1.1
Entry for CCc1nn(C(CC)C(=O)NCCc2ccc(OC)cc2OC)c(=O)c2cc3occc3n12 (stereo not given) = KCNQ2 inh = i; KCNQ2 inh baseline = 1.1
Entry for Cc1onc(-c2c(F)cccc2Cl)c1C(=O)N1C=CC(C(F)(F)F)=NCC1 = KCNQ2 inh = i; KCNQ2 inh baseline = -1.3

Fetched by structure from the entries so far:
KCNQ2 inh	KCNQ2 inh baseline	structure
i	-0.41	Cc1ccc(NC2(C#N)C(=O)Nc3ccccc32)cc1C (stereo not given)
i	-2.5	CCN(Cc1ccccc1)C(c1cccc(C#N)c1)c1nnnn1C(C)(C)C (stereo not given)
i	1.5	N#Cc1c(N)c(C#N)c(-c2ccc3c(c2)OCO3)c2c1CCCC2

(cont.)
KCNQ2 inh	KCNQ2 inh baseline	structure
i	0.56	C=CCOC(=O)/C(=C\c1ccccc1)NC(=O)c1ccc(C)cc1
i	0.01	COc1ccc(CNC(=O)c2ccc(C)o2)cc1
i	-2.6	Cc1cc(C(C)c2ccccc2)c(O)c(CN2CCOCC2)c1C (stereo not given)
i	-0.08	Cc1cc(C)nc(SCC(=O)n2c3c(c4ccccc42)CCCC3)n1
i	0.76	CC(C)(C)NC(=O)COC(=O)c1cc(S(=O)(=O)N2CCCCC2)ccc1N1CCOCC1
i	-0.64	COc1ccc2c(c1)c(C(C)=O)c(C)n2C
i	-0.02	CC(C)c1cc(-c2cc(-c3ccc(Cl)cc3)on2)nc(NCC2CC2)n1
i	-1.4	O=C(O)c1ccc(Cl)c(NCc2cccs2)c1
i	1.4	Cc1cccc2cc3c(nc12)-c1ccccc1C3=O
i	0.11	Cc1ccc(C(=O)/C=C/Nc2ccccn2)cc1
i	0.44	O=C(CN1C(=O)NC2NC(=O)NC21)N/N=C/c1ccccc1O (stereo not given)
i	1.3	CCOC(CNC(=O)CCc1c(C)nc2ncnn2c1C)OCC
i	0.5	COc1ccccc1-n1c(SCC(=O)NC2CCS(=O)(=O)C2)nc2cc([N+](=O)[O-])ccc21 (stereo not given)
i	-1.3	Cc1ccc(NC(=O)CC(C)S(=O)(=O)c2ccc3c(c2)NC(=O)CO3)cc1C (stereo not given)
i	-0.1	COc1ccc(-n2cc(-c3ccccc3)c3c(NCCCN4CCOCC4)ncnc32)cc1
